# Polio RdRp inh: poliovirus RNA polymerase inhibition | % elongation, % (compound at 16.7 µg/mL) | poliovirus polymerase elongation, fluorescence polarization; stronger effect = lower value | P03300 | AID 588519 | 150,000 tested, 0.66% active; in the data active = % elongation below about 90%; also: some results filed as inactive read as strong as hits
# Mtb MenB inh: Mtb MenB enzyme inhibition. inhibition, %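 (about 12 µg/mL by stock and volumes)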. 100,000 tested, 0.43% active. P9WNP5. MenB enzyme assay, absorbance read-out; some hits fall short of the stated cut. AID 540299;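 active = mean of two replicates above 30%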;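 also: 0% = no compound and 100% = wells with inactive enzyme; the first replicate is given; strong numbers were not always called active; inactives centre near -10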
# Target sequence (P9WNP5 whole entry, looked up): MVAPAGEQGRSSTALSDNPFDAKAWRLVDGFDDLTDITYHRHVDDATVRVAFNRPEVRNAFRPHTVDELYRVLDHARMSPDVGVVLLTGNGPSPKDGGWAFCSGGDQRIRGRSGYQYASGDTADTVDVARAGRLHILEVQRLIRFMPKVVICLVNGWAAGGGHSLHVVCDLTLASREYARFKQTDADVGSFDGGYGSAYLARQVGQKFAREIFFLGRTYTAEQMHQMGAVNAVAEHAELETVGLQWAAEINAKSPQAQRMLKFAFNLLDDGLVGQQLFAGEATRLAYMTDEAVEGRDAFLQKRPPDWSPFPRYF
# Mtb MbtI inh: blocks the Mycobacterium tuberculosis siderophore enzyme MbtI; P9WFX0; purified MbtI enzyme, fluorescence intensity read-out; inhibition, %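 (about 17 µg/mL by stock and volumes)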; 100,000 tested, 0.89% active;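 active = above 50% in both replicates, above 80% if mildly self-fluorescent; inactive = the rest, strongly fluorescent compounds included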;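 also: 0% = mean of negative and 100% = mean of positive controls; one replicate is shown; some compounds called inactive have numbers as strong as hits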
# Target sequence (P9WFX0 whole entry, looked up): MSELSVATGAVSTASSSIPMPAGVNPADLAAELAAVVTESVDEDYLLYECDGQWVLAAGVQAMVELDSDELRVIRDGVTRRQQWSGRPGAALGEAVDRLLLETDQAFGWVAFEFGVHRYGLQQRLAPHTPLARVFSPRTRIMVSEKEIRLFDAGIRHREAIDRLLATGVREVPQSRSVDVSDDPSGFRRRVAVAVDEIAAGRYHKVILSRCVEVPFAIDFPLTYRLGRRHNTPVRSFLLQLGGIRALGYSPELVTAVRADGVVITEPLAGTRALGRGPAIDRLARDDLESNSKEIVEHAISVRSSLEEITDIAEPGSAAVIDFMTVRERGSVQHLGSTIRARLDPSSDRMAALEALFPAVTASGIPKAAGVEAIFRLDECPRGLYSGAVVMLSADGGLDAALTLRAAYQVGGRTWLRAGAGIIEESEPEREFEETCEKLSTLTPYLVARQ
# Polio RdRp inh intensity: second read-out of Polio RdRp inh, no call of its own (marks repeat the call); % elongation; measured here: total intensity read-out; formula for this scale not given here;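 total fluorescence in place of polarization; lower means less elongation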
# * marks the source's active call; other numbers are inactive results; i = inactive; / = not tested or not shown. Rows are unselected, and some 1.8% of all compounds hit somewhere here.
SMILES,Polio RdRp inh,Polio RdRp inh intensity,Mtb MenB inh,Mtb MbtI inh
CN(C)CCN(C)C,108.0,104.0,-7.4,-6.3
CCOC(=O)C1CCN(C(=O)Cc2cccc3ccccc23)CC1,101.0,100.0,3.1,-4.1
O=C1CSC(c2ccccc2)N1CCc1ccccc1 (configuration not stated),101.0,105.0,7.1,-4.3
Cc1ccc(CNC(=O)Nc2ccc3c(c2)N(C)C(=O)c2ccccc2S3)cc1,102.0,101.0,-7.8,-10.2
c1ccc(Nc2nc(Nc3ccccc3)nc(Oc3ccccc3)n2)cc1,105.0,103.0,-17.9,/
CSc1nnc(NC(=O)c2cccc3ccccc23)s1,103.0,104.0,-4.0,7.0
CCOC(=O)c1cnn(-c2ccccc2)c1NC(=O)c1ccccc1F,102.0,106.0,-0.6,1.8
CC(C)n1c2ccccc2c2nnc(SCCCC(=O)c3ccc(F)cc3)nc21,102.0,100.0,9.8,-8.6
O=C(O)CC1C(=O)OCN1C(=O)OCc1ccccc1 (configuration not stated),95.0,101.0,-8.5,6.8
CC(=O)NCCC(=O)N1CCN(c2cccc(C)c2C)CC1,/,/,-18.9,21.0
CCc1ccc(NC(=O)C2CC(=O)n3c(nc4ccccc43)N2)cc1 (configuration not stated),99.0,98.0,-0.9,-5.6
Nn1c(SCCC(=O)O)nnc1-c1ccccc1,104.0,102.0,-12.7,-9.2
Cc1cc(C)c2c(CC(=O)Nc3nc(C)c(C(=O)OCC(C)C)s3)coc2c1,102.0,106.0,-12.4,-8.0
NCC(=O)CCC(=O)O,98.0,102.0,-1.0,1.9
CCc1ccc(NC(=O)c2cc3c(=O)n(Cc4ccco4)ccc3nc2C)cc1,101.0,103.0,-17.3,-23.6
CC(Sc1nnc(C(F)(F)F)n1C)C(=O)Nc1ccc(N2CCOCC2)cc1 (configuration not stated),102.0,103.0,-4.8,4.0
O=C(Cc1cccs1)Nn1c(Cc2cccs2)nc2ccccc2c1=O,101.0,102.0,-25.3,-4.8
CC1C/C(=C/c2ccco2)C(C)N(C)C1 (configuration not stated),102.0,120.0,-33.0,/
COc1cccc(NC(=O)Cn2c(=O)c3cccn3c3ccccc32)c1,102.0,107.0,-0.1,31.2
CN(C)/C=C1/C(=O)Nc2ccccc21,/,/,-34.0,11.2
O=C(Cc1csc(-c2ccccc2)n1)N1CCN(C(=O)C2CCCO2)CC1 (configuration not stated),96.0,99.0,0.5,3.9
O=C(NCc1ccccc1)C1CCN(c2nnc(-n3cccc3)s2)CC1,103.0,104.0,-7.9,-1.4
COc1cc(/C=N/NC(=O)CCN2CCCCC2)cc(OC)c1OC,103.0,103.0,-8.2,12.8
O=C(COc1ncnc2ccccc12)N1N=C2/C(=C/c3ccco3)CCCC2C1c1ccco1 (configuration not stated),102.0,104.0,-3.5,19.1
CC(=O)N1N=C(c2cccc(I)c2)OC1c1ccncc1 (configuration not stated),100.0,102.0,9.1,-5.7
CC1Cc2cc(S(=O)(=O)N(C)CC(=O)N3CCOCC3)ccc2N1C(=O)C1CC1 (configuration not stated),104.0,105.0,-3.2,1.1
CCC1SC(C)C/C(=N\O)C1C (configuration not stated),104.0,101.0,-46.1,-4.3
COc1ccc(NC(=O)COC(=O)c2oc3ccc(Br)cc3c2C)cc1OC,102.0,107.0,-17.8,-1.2
Cn1cc(SCC(=O)Nc2ccc(F)cc2)c2ccccc21,100.0,104.0,-10.6,6.5
O=C(Cc1csc(N2CCOCC2)n1)N/N=C1\CCCc2ccccc21,104.0,110.0,-18.4,-25.4
O=C(CN1C(=O)c2cccnc2Oc2ccc(Cl)cc21)NC1CCCCCC1,104.0,102.0,-10.3,-10.9
CCSc1nnc2c(n1)OC(/C=C/c1ccco1)N(C(C)=O)c1ccccc1-2 (configuration not stated),101.0,106.0,-23.1,8.8
CN(CC(=O)O)S(=O)(=O)/C=C/c1ccccc1,104.0,106.0,-5.7,-6.9
CC(=O)NC(NC(C)=O)C(C)(C)Cc1ccccc1,103.0,99.0,-52.1,-1.7
N#CC(C#N)=Cc1cccn1S(=O)(=O)c1ccc(F)cc1F,105.0,114.0,-24.5,-2.0
CSc1sc(=S)sc1SCCC#N,103.0,102.0,-34.4,22.9
Cc1cc2c(cc1NC(=O)CCc1ccccc1)n(C)c(=O)n2C,100.0,103.0,2.6,-11.9
OCCN1CCN(CCc2ccccc2)CC1,101.0,104.0,5.4,-2.9
CCc1ccc(-n2nc3ccc(NC(=O)c4ccccc4Br)cc3n2)cc1,99.0,101.0,-5.1,-10.1
CN(C)c1ccc(/C=N/NC(=O)NC23CC4CC(CC(C4)C2)C3)cc1,104.0,103.0,-17.0,-7.5
CC(=O)Nc1ccc(S(=O)(=O)N2CCN(C(=O)N3CCCC3)CC2)cc1,103.0,101.0,19.6,-5.7
c1ccc(N2CCN(c3ncnc4c3oc3ccccc34)CC2)cc1,101.0,103.0,-16.0,i
COc1ccc(CCN(Cc2ccccn2)S(=O)(=O)c2ccc(C(C)(C)C)cc2)cc1OC,104.0,108.0,-19.6,-10.7
O=C1NC(=Nc2ccccc2)CS1,99.0,104.0,-21.2,36.9
O=C(NCc1cccs1)c1cc(-c2ccco2)on1,101.0,104.0,-14.8,-1.6
Cc1ccc(Oc2ncccc2NC(=O)c2ccc3c(c2)OCCCO3)c2c1CCC2,106.0,110.0,3.7,-0.8
O=C(NCCC(=O)N(c1ccccc1)c1nc2ccccc2s1)c1ccco1,100.0,92.0,-25.5,3.9
O=S(=O)(c1ccc(-c2ccccn2)s1)N1CCCCC1,105.0,101.0,-27.3,1.1
CCc1c(C(=O)Nc2ncn(Cc3cccc(C)c3)n2)csc1C,99.0,101.0,-3.8,-6.9
Cn1ccnc1SCC(=O)N1c2ccccc2-c2c(ssc2=S)C1(C)C,103.0,102.0,-18.6,-23.0
COC(=O)CCC(=O)Nc1ccc(-c2nc3ccccc3[nH]2)cc1,99.0,101.0,-2.6,90.1
Cc1cc(C)c(C(=O)Cn2c(=S)[nH]c3ccccc32)c(C)c1,103.0,109.0,2.5,/
O=C(O)/C(=C\c1ccccc1)c1ccccc1,102.0,98.0,7.4,3.4
CC(NC(=O)C12CC3CC(CC(C3)C1)C2)C(=O)NN (configuration not stated),101.0,104.0,11.1,-3.8
CN(CC(=O)NC1CCCc2ccccc21)C1CCCCC1 (configuration not stated),106.0,104.0,-41.8,-6.2
Cc1nc2ccccc2n1Cc1cccc(Cl)c1,103.0,107.0,-14.9,-10.8
CC(C)n1c(Cc2ccccc2)nc2ccccc21,103.0,102.0,/,-10.9
CCOC(=O)c1cc(CC)sc1NC(=O)c1ccco1,104.0,105.0,-29.7,79.3
COc1ccc(CCNC(=O)CCNc2ccccc2C)cc1OC,101.0,101.0,-16.8,-2.3
O=c1cc(-c2ccccc2)oc2ccc(Cl)cc12,103.0,105.0,-17.7,-5.5

# Entries above containing a COOH group, in the order listed:
SMILES,Polio RdRp inh,Polio RdRp inh intensity,Mtb MenB inh,Mtb MbtI inh
O=C(O)CC1C(=O)OCN1C(=O)OCc1ccccc1 (configuration not stated),95.0,101.0,-8.5,6.8
Nn1c(SCCC(=O)O)nnc1-c1ccccc1,104.0,102.0,-12.7,-9.2
NCC(=O)CCC(=O)O,98.0,102.0,-1.0,1.9
CN(CC(=O)O)S(=O)(=O)/C=C/c1ccccc1,104.0,106.0,-5.7,-6.9
O=C(O)/C(=C\c1ccccc1)c1ccccc1,102.0,98.0,7.4,3.4

# Other structures.
SMILES,Polio RdRp inh,Polio RdRp inh intensity,Mtb MenB inh,Mtb MbtI inh
O=C(c1cc2nc(-c3ccccc3)cc(C(F)(F)F)n2n1)N1CCCC1,102.0,102.0,-24.9,-6.3
Cc1ccccc1OCCCn1cc(C(=O)C(C)(C)C)c2ccccc21,103.0,106.0,-19.0,-6.8
O=C1CC(=O)CC2(CCCC2)C1,95.0,83.0,-131.9,8.1
c1ccc(OCCCn2c3ccccc3c3nc4ccccc4nc32)cc1,104.0,108.0,-7.9,-5.0
Oc1ccc(-c2nnc(-c3ccc(O)cc3)nn2)cc1,101.0,104.0,-63.7,-11.9
CCS(=O)CCSc1nc(-c2ccc(C)cc2)cc(-c2ccccc2)c1C#N (configuration not stated),102.0,95.0,-17.2,1.0
CCCc1cc(=O)oc2cc(OC(=O)c3cccnc3N3CCCC3)ccc12,101.0,98.0,-10.6,104.2
CC(N)C(O)c1cccc(O)c1 (configuration not stated),101.0,103.0,-16.1,-15.9
OCc1ccc(OCCOc2cccc3cccnc23)cc1,107.0,99.0,-11.8,-84.2
CC(OC(=O)C1Cc2ccccc2CN1S(C)(=O)=O)C(=O)Nc1ncc(Cl)cc1Cl (configuration not stated),100.0,102.0,-12.1,-10.3
Oc1ccccc1C(O)C(F)(F)F (configuration not stated),103.0,99.0,/,-8.3
COc1cccc(CNC(=O)C2CCN(c3ncccn3)CC2)c1,101.0,103.0,-9.8,21.7
CCn1c(C(=O)N2CCCC(C(=O)NCCc3ccc(S(N)(=O)=O)cc3)C2)cc2sccc21 (configuration not stated),100.0,102.0,12.5,5.9
CCOC(=O)C1=C(C)NC(=O)CC1c1cc2c(cc1Br)OCO2 (configuration not stated),100.0,102.0,5.0,1.6
COC(=O)c1ccc(Cn2cc(Cl)cn2)cc1,101.0,102.0,-10.3,-2.5
COc1cc(C)nc(N2CCCC(C(=O)Nc3ccccc3Br)C2)n1 (configuration not stated),103.0,104.0,-28.7,-6.4
O=C(Nc1ccccc1SC(F)(F)F)c1cccnc1,99.0,103.0,/,-3.3
CNCc1nc2ccccc2c(=O)[nH]1,108.0,106.0,-45.0,0.1
CC1=C(c2ccc(C)cc2)S(=O)(=O)N=C1Nc1ccc(C)cc1,101.0,105.0,1.4,4.4
Cc1sc2ncn(CC(=O)NCC3COc4ccccc4O3)c(=O)c2c1S(=O)(=O)N1CCOCC1 (configuration not stated),101.0,103.0,1.1,-7.4

# A portion of the results above, as a working copy:
SMILES,Polio RdRp inh,Polio RdRp inh intensity,Mtb MenB inh,Mtb MbtI inh
CC1=C(c2ccc(C)cc2)S(=O)(=O)N=C1Nc1ccc(C)cc1,101.0,105.0,1.4,4.4
Cc1sc2ncn(CC(=O)NCC3COc4ccccc4O3)c(=O)c2c1S(=O)(=O)N1CCOCC1 (configuration not stated),101.0,103.0,1.1,-7.4

# (next part)
SMILES,Polio RdRp inh,Polio RdRp inh intensity,Mtb MenB inh,Mtb MbtI inh
Cc1cc(C)nc(NC2=NCCN2)n1,102.0,108.0,-9.8,-10.6
COc1ccc(-c2nc3cc(OC)c(OC)cc3c(=O)o2)cc1,103.0,106.0,4.6,8.6
CSc1nn(-c2ccccc2)cc1C(=O)N1CCOCC1,103.0,102.0,8.6,4.3
COc1ccc(C(=O)NC(N2CCCCC2c2cccnc2)(C(F)(F)F)C(F)(F)F)cc1 (configuration not stated),102.0,109.0,-12.8,/
CN(C)C(=O)/C=C/c1cn(-c2ccccc2)nc1-c1ccccc1,99.0,103.0,/,-13.5
COc1cccc(NC(=O)c2ccnc(N3CCC(C(=O)NC4CCCC4)CC3)c2)c1,99.0,103.0,11.2,0.8
CCC(C)NC(=O)c1cc(S(=O)(=O)N2CCc3ccccc3C2)ccc1Cl (configuration not stated),100.0,109.0,/,-8.1
CCCc1nc2ccccc2c(C(=O)OCc2nnc(-c3cc(OC)c(OC)c(OC)c3)o2)c1CC,110.0,113.0,-33.6,-23.0
O=C(CC(NCc1cccnc1)C(=O)O)NN(c1ccccc1)c1ccccc1 (configuration not stated),98.0,105.0,-2.8,2.8
COc1ccccc1C(=O)Nc1ccncc1,103.0,102.0,3.8,4.4
CC(C)=CCC1=C(O)c2ccccc2C(=O)C1=O,98.0,98.0,1.8,4.6
O=C(O)C(Cc1ccccc1)n1cnnn1 (configuration not stated),102.0,102.0,-8.7,-3.7
Cc1[nH]c2ccccc2c1SCCNC(=O)C(C)(C)C,102.0,97.0,-21.7,1.3
COc1cccc(OC(C)C(=O)O)c1 (configuration not stated),100.0,102.0,-49.3,-2.1
C=CCN(C(=O)/C=C/c1ccco1)c1nc(-c2ccccc2)cs1,107.0,111.0,-33.5,8.5
COc1cc(OC)cc(C2NCCc3c2[nH]c2ccccc32)c1 (configuration not stated),102.0,101.0,-13.4,-13.8
CCCNC(=O)Cn1c(=O)cnc2ccccc21,99.0,99.0,-25.9,107.2
O=C(C1c2ccccc2Oc2ccccc21)N1CCN=C1SCc1ccccc1F,101.0,102.0,-14.0,5.5
CCn1nc(C(=O)NCCC(C)C)c2ccccc2c1=O,104.0,100.0,13.4,9.4
Cc1ccc(N2C(=S)N(C)C3CS(=O)(=O)CC32)cc1 (configuration not stated),100.0,101.0,11.9,-3.7
COc1ccccc1CNC(=O)CSc1nc2c(cnn2-c2cccc(C)c2)c(=O)[nH]1,104.0,105.0,-5.8,-6.0
c1cncc(CSc2nnc3ccc(-c4ccncc4)nn23)c1,101.0,105.0,-6.1,6.7
O=c1[nH]c(CCl)nc2sc3c(c12)CCC3,102.0,103.0,/,-16.4
O=C1/C(=C/c2ccco2)CN(Cc2ccccc2)C/C1=C\c1ccco1,102.0,112.0,-28.9,20.3

# Given bar-delimited: entries from further up.
Compound | Polio RdRp inh | Polio RdRp inh intensity | Mtb MenB inh | Mtb MbtI inh
c1cncc(CSc2nnc3ccc(-c4ccncc4)nn23)c1 | 101.0 | 105.0 | -6.1 | 6.7
O=c1[nH]c(CCl)nc2sc3c(c12)CCC3 | 102.0 | 103.0 | / | -16.4
O=C1/C(=C/c2ccco2)CN(Cc2ccccc2)C/C1=C\c1ccco1 | 102.0 | 112.0 | -28.9 | 20.3
